Calb FLC – affects C. albicans growth with fluconazole; 0.57% of 300,000 active; growth inhibition, % (no concentration beside the values); C. albicans CaCi-2 (fluconazole-resistant clinical isolate) + fluconazole, Alamar Blue growth, 48 h; AID 1979;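 active = most replicates above 75%; inconclusive = exactly half above 75%; inactive = most below 75%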;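 also: all wells also contain fluconazole at 8 µg/ml as a sub-toxic cotreatment; 0% = median of DMSO wells and 100% = median of geldanamycin control wells; wells of about 8 µL received 7.5 nL stock; the first replicate is given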
ALR inh – blocks human ALR sulfhydryl oxidase activity; P55789; purified ALR, DTT oxidation, H2O2 HRP-luminol luminescence; inhibition, % (concentration not given with the values); 3.8% of 290,000 active; AID 485317;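 active = mean and each replicate at 75% or more; inconclusive = only one of the two met; inactive = neither met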;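 also: stock transfer was 7.5 nL into about 7.5 µL; 0% = neutral wells and 100% = wells with inactivated enzyme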
Target sequence (P55789 whole entry, looked up): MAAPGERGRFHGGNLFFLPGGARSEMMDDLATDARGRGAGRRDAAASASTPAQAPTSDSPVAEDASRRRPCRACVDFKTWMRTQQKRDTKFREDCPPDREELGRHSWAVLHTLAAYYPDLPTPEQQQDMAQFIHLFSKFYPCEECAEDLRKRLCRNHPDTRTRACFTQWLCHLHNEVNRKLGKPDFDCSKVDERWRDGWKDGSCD
HNF4A DNA FP – change in binding of human HNF4 alpha to DNA; P41235; HNF4a-FITC DNA binding, fluorescence polarization, 1 h; activity change, % at 10 µM; 0.3% of 360,000 active; AID 1224865; in the data active = activity change above about 30%, passing the limit was not always enough;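 also: controls were the assay level and a saturating level of protein; the project sought stronger binding though the title names inhibitors; some compounds called inactive have numbers as strong as hits; positive values seem to mean higher polarization but the record does not say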
Target sequence (P41235 whole entry, looked up): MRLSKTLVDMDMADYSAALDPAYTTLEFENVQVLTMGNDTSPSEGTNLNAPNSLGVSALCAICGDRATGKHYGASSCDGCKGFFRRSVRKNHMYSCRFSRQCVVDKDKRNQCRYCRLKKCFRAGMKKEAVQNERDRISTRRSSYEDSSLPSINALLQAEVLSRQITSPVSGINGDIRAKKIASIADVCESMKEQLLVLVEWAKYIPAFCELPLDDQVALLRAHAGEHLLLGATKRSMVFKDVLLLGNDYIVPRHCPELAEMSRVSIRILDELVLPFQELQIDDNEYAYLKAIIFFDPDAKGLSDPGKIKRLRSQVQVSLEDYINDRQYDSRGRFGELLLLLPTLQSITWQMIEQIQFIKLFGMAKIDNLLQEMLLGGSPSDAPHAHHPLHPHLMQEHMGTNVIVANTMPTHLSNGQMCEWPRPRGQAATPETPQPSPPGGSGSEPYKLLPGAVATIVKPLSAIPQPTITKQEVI
Vif TR-FRET – inhibitors of Vif binding to APOBEC3G peptide, primary screen, biochemical, TR-FRET, GST-Vif 1-94, biotin-A3G peptide, dose response retest (AID 1117319). TR-FRET GST-Vif / biotin-A3G peptide binding; higher % means a stronger effect; test concentration not given here; strong numbers were not always called active. inhibition, %, or IC50 in µM where a hit was titrated. 0.57% of 260,000 active;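 active = above the screen mean plus three standard deviations and confirmed in dose response; inconclusive = results disagree or hit not tested in dose response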;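 also: Vif residues 1-94 fused to GST binding biotinylated APOBEC3G peptide 110-148; 0% = full assay without inhibitor and 100% = GST in place of GST-Vif; retest series ran down from 100 µM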
RanGTP-Impb inh – inhibitors of RanGTP-importin-beta interaction, primary screen, biochemical, FRET, CFP-Ran, YFP-importin-beta, homogeneous | inhibition, % (no concentration beside the values) | cell-free CFP-Ran/YFP-importin-beta FRET ratio | 1.1% of 300,000 active | AID 2216;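 active = most replicates above 15%; inconclusive = exactly half above 15%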;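 also: 0% = DMSO wells and 100% = Ran loaded with GDP instead of GTP; wells of about 40 µL received 100 nL stock; the first replicate is given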
LANA-H2A inh – blocks KSHV LANA binding to histone H2A/H2B | cell-free LANA-H2A/H2B peptide, fluorescence polarization | 0.6% of 320,000 active | Q9QR71 | inhibition, % (concentration not given with the values); in the data active = inhibition mostly above about 10%, no sharp cut-off; inactive = mostly below about 6.7%;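 also: stock transfer was 7.5 nL into about 10 µL; 0% = median of vehicle wells and 100% = median of positive control wells; one replicate is shown; the record names a cut of 25% in any replicate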
B2AR ag – activates human beta-2 adrenergic receptor causing internalization. 0.43% of 340,000 active. response, % (no concentration beside the values). P07550. AID 504454. Am2.2-beta2AR cells, FAP receptor internalization, flow cytometry; reference of the scale not given here;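 active = response above a set limit, near 3 SD of response in nonfluorescent compounds, cut at about 42% in these data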;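 also: stock transfer was 100 nL into about 11 µL; a reference agonist was the positive control; negative values mostly stem from fluorescent compounds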
Target sequence (P07550 whole entry, looked up): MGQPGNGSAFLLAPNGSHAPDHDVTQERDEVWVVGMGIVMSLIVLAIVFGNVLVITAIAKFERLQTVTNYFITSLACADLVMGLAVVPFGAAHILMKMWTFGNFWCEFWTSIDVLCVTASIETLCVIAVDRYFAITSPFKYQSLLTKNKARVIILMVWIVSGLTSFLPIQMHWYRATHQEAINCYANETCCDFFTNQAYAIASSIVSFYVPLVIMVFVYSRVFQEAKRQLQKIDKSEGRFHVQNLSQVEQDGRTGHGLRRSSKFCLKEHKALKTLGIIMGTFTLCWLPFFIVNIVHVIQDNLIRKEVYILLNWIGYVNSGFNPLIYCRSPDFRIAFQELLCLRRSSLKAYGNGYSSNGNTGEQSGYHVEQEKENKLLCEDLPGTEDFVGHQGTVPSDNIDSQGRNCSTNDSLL
The depositor's hits bear a star; ? = inconclusive; · = no result given; & = joins results of further samples.

SMILES	Calb FLC	ALR inh	HNF4A DNA FP	Vif TR-FRET	RanGTP-Impb inh	LANA-H2A inh	B2AR ag
Nc1nc(CN2CCCCCC2)nc(Nc2ccc(F)cc2)n1	-4	0	4.2	-4%	7.3	-4.9	-3
O=c1c2ccccc2[nH]c(=S)n1C1CCCCC1	-21	4	2.2	-2%	-3.4	-4.7	-10
O=C(NCC(=O)N(c1ccc(F)cc1)C(C(=O)NC1CCCCC1)c1cccnc1)c1ccco1 (stereo not given)	-4	1	-0.5	·	-0.2	5.0	-15
Cc1cccc(C(=O)N[C@@H](C)C(=O)N2CCN(c3ncccn3)CC2)c1	·	1	3.2	·	·	-6.4	-4
Nc1sc2c(c1C(=O)c1ccccc1)CCCC2	37	?	-0.1	25%	4.1	3.9	6
CCc1nc2ccc(C(=O)O)cc2nc1CC	8	·	-2.9	8%	?	2.9	6
CC(NC(=O)COC(=O)/C=C/c1cccc(F)c1)c1ccccc1 (stereo not given)	·	0	2.8	·	·	0.0	10
COc1ccc(Cl)cc1C(=O)NCCN(C)C	-1	-4	-3.2	1%	?	5.2	15
C/C(Cn1ncc(N2CCOCC2)c(Cl)c1=O)=N\O	-3	-6	-3.4	1%	-0.7	-1.5	-4
CC(C)c1nnc(NC(=O)c2nc(S(=O)(=O)Cc3ccccc3F)ncc2Cl)s1	1	15	·	·	-1.3	-1.3	·
COc1ccc2[nH]c3c(=O)n(CCCCCC(=O)NCCC(C)C)c(=S)[nH]c3c2c1	8	-7	-3.2	0%	1.0	3.8	-4
CSCCC(NC(=O)c1cc(C(C)(C)C)oc1C)C(=O)O (stereo not given)	-3	0	-0.5	1%	-0.8	-0.1	3
N#C/C(=C\c1ccncc1)c1nc2ccccc2o1	1	·	5.2	7%	5.9	7.5	10
COCCn1c(=O)[nH]c2cc(C(=O)Nc3cc(C)cc(C)c3)ccc2c1=O	-7	3	-0.5	·	0.0	-17	5
COc1cc(/C=C/c2ccc3cccc(O)c3n2)cc(OC)c1OC	-1	-6	-2.5	-5%	-2.5	1.3	27
Cc1c2c(c(C)n1C)C(C(=O)NC1CCCCC1)N(Cc1ccccc1)C2=O (stereo not given)	-35	-2	4.0	·	1.9	-2.4	-3
S=C(NCc1ccccn1)Nc1ccc(Cl)cc1Cl	1	-5	-1.0	9%	4.4	5.4	-2
O=C(Nc1ccc(Br)c2cccnc12)c1ccc(Cn2cc(Cl)cn2)o1	-6	-13	1.0	20%	-2.7	-2.2	-3
O=C(c1ccccn1)N1CCN(c2ccc(C(F)(F)F)cn2)CC1	-4	-5	-0.9	-1%	-0.5	6.3	7
COC(=O)C(C(=O)OC)C(C[N+](=O)[O-])c1ccc(OC)c(OC)c1 (stereo not given)	-3	-2	-1.5	-6%	-2.7	-1.6	14
CCCCN(C(=O)c1ccc(C)o1)c1c(N)n(CC(C)C)c(=O)[nH]c1=O	·	3	3.7	-3%	·	3.3	1
O=C(CCc1ccccc1)Nc1ccnn1C1CCN(C/C=C/c2ccccc2)CC1	-3	-5	5.8	·	1.3	3.6	-6
COc1ccccc1NC(=O)C(C)OC(=O)CCCN=C1NS(=O)(=O)c2ccccc21 (stereo not given)	-7	8	-4.2	-2%	5.0	-3.5	-2
CC(=O)Nc1ccc(OCCCNC(=O)c2c(-c3ccccc3)noc2C)cc1	3	-5	-0.9	-3%	?	3.4	-2
O=C(NCCc1ccccc1)c1cccnc1	1	-23	-0.4	19%	-0.4	-4.1	5
O=c1cc2c(c(-c3ccccc3)n1Cc1ccccc1)[C@@H](CCO)NC2	·	·	7.8	-13%	·	·	4
CCOc1ccc(CN(C)CC(=O)Nc2ccc(N3CCOCC3)cc2)cc1OC	2	·	3.7	·	0.4	2.1	0
CCOCCCn1c(SCC(=O)N2CCOCC2)nc2ccccc2c1=O	-1	1	2.9	·	0.5	1.0	-4
CC(SCc1ccccc1)C(=O)Nc1ccccc1F (stereo not given)	-18	-8	-3.2	8%	1.2	-3.0	-8
COCCCN1C(=O)c2ccc(C(=O)OCC(=O)NCc3cccc(OC)c3)cc2C1=O	·	·	1.3	-2%	·	1.2	-5
Cc1ccc(NC(=O)Cn2c(=O)n(CCCCC(=O)NCc3ccco3)c(=O)c3ccccc32)cc1	1	24	1.9	14%	-1.2	-3.8	-5
CCOc1ccccc1C1C(C(N)=O)=C(C)Nc2nc(-c3cccc(C)c3)nn21 (stereo not given)	8	8	-4.0	3%	5.9	-0.5	7
CCn1c(C)cc2c(c1=O)C(c1ccccc1Br)C(C#N)=C(N)O2 (stereo not given)	5	-1	-1.7	2%	48*	-2.7	1
CC(=O)Nc1ccc(Nc2ccc(N3C(=O)CCCC3=O)cc2[N+](=O)[O-])cc1	-7	1	-0.6	?	-4.5	2.1	5
CN1CCC(Oc2ccccc2Sc2ccc(C(F)(F)F)cc2)CC1	0	-67	2.0	20%	2.0	-1.0	11
O=C(Nc1ccc(OC(F)(F)F)cc1)C1CCCN(C(=O)c2ccc(Cl)cc2)C1 (stereo not given)	·	4	-5.2	-1%	·	1.4	-5
O=C(C1CCC(=O)N(C2CC2)C1)N1CCN(c2cccc(Cl)c2)CC1 (stereo not given)	-9	22	1.2	·	5.7	-6.6	1
O=C(CN1CCN(c2ccc(C(F)(F)F)cn2)CC1)Nc1ccc2c(c1)OCO2	-5	-3	-2.5	-4%	?	-7.8	0
CCCN1CCN(C(=O)c2nn(-c3ccc(OC)cc3)c(=O)c3c2c2ccccc2n3C)CC1	9	-6	2.4	-2%	-5.1	0.9	5
O=C(c1ccc2c(c1)OCO2)N1CCN(S(=O)(=O)c2ccc(Cl)cc2)CC1	-13	3	5.5	·	4.0	8.0	-6
CS(=O)(=O)N(Cc1ccccc1)c1ccccc1C(=O)N1CCN(c2ccccc2)CC1	-13	39	4.8	11%	1.4	-0.1	0
Fc1ccc(OCCOCCN2CCCC2)cc1	3	-1	0.2	·	-0.6	0.6	-2
N#Cc1c(NC(=O)CCCN2C(=O)c3ccccc3C2=O)oc(-c2ccccc2)c1-c1ccccc1	1	-1	0.5	-3%	1.3	-4.2	3
CCOC(=O)c1c(-c2ccc(C)o2)csc1NC(=O)CN1CCCCC1	29	6	2.2	12%	3.4	-0.3	7
Cc1noc(C)c1NC(=O)NC(c1ccccc1)c1ccccc1	-6	-25	0.1	22%	0.1	-3.7	13
Cc1nn(-c2ccccc2)c2sc(C(=O)NC3CCCCC3)cc12	?	-2	-7.6	1%	28*	-10	7
Cc1c(NS(=O)(=O)c2ccc(N)cc2)c(=O)n(-c2ccccc2)n1C	9	2	-2.2	·	1.5	4.8	9
O=C1NCCN1C(=O)c1cccc(Cl)c1	·	-2	-2.7	-3%	-1.6	4.6	4

In another format: entries from further up
SMILES,Calb FLC,ALR inh,HNF4A DNA FP,Vif TR-FRET,RanGTP-Impb inh,LANA-H2A inh,B2AR ag
CCOC(=O)c1c(-c2ccc(C)o2)csc1NC(=O)CN1CCCCC1,29,6,2.2,12%,3.4,-0.3,7
Cc1noc(C)c1NC(=O)NC(c1ccccc1)c1ccccc1,-6,-25,0.1,22%,0.1,-3.7,13

New compounds follow.
SMILES	Calb FLC	ALR inh	HNF4A DNA FP	Vif TR-FRET	RanGTP-Impb inh	LANA-H2A inh	B2AR ag
CCOC(=O)N1CCC(Nc2ccc3nnc(-c4ccccc4)n3n2)CC1	-17	-13	7.3	-5%	0.2	-2.1	-9
COc1ccc(N2CCN(C(=O)COC(=O)CCOc3ccc(C)cc3)CC2)cc1	-5	0	-0.6	1%	-0.1	0.5	-1
O=C(CN1CCSC1=O)Nc1ccc(N2CCOCC2)cc1	·	·	1.0	1%	·	·	-21
CC(C)(C)c1ccc(/C=N/NC(=O)C(=O)NCCCN2CCOCC2)cc1	8	1	3.1	5%	1.9	3.1	-8
CC(O)c1cccc(NC(=O)Cc2cccc3ccccc23)c1 (stereo not given)	-5	-2	·	24%	4.5	-1.5	·
CCOC(=O)N1CCC(N(CCN(C)C)C(=S)Nc2ccccc2OCC)CC1	8	-4	-3.0	-1%	-2.5	-2.8	11
CC(=O)C(N=Nc1ccccc1)(Sc1nnc(-c2ccccc2)n1-c1ccccc1)C(C)=O	13	-8	-3.4	6%	-3.4	0.1	10
O=C(CSCc1c(Cl)cccc1Cl)NCc1cccnc1	9	-1	0.9	2%	?	2.5	-5
COc1cccc(N2CCN(C(=O)CCCCCn3c(=S)[nH]c4cc5c(cc4c3=O)OCO5)CC2)c1	8	0	0.2	-17%	0.0	-3.1	-6
O=C(CCS(=O)(=O)c1ccccc1)Nc1ccc2c(c1)C(=O)NC2=O	5	6	-0.5	-4%	1.1	1.9	-1
CCOC(=O)Cn1c(=O)oc2cc(S(=O)(=O)NCCc3ccc(C)cc3)ccc21	-3	·	3.1	0%	2.8	-1.7	3
CCN(c1cccc(C)c1)c1nc2ccsc2c(=O)s1	-8	-4	0.3	11%	-0.3	1.9	2
CCc1noc(C)c1C(=O)N(Cc1ccccc1)c1c(N)n(CCOC)c(=O)[nH]c1=O	3	·	1.0	1%	4.0	-0.8	-6
COCCN(C(=O)COC(=O)CNC(=O)c1cccs1)c1c(N)n(Cc2ccccc2)c(=O)[nH]c1=O	-2	-4	3.1	-1%	2.4	6.4	7
COc1ccc(N(C)C(=O)C2CCCN2S(=O)(=O)c2cccc3nsnc23)c(OC)c1 (stereo not given)	-2	-9	-0.1	3%	1.6	-2.6	5
COc1ccccc1C(=O)COC(=O)CN1C(=O)NC2(CCCC2)C1=O	-3	0	-1.1	-3%	4.8	0.8	-9
CCCCN(C(=O)NC(=O)Nc1ccccc1OC)S(C)(=O)=O	-7	-7	0.4	?	0.3	-4.2	5
CCOC(=O)C1=C(c2ccccc2)NC(=S)NC1c1cc([N+](=O)[O-])ccc1OC (stereo not given)	-6	-2	3.1	2%	3.1	-1.1	-1
Cc1nc(NC(=O)CSc2nnc(Cn3nnc4ccccc43)n2C)sc1C	8	-5	0.6	27%	-1.4	0.8	-6
Cc1ccc2[nH]c3c(=O)n(CCCN4CCOCC4)cnc3c2c1	1	33	-0.8	-7%	-3.1	2.9	-6
CCOC(=O)c1cnc2nc(NCc3ccc(OC)c(OC)c3)[nH]n2c1=O	-1	2	-3.1	21%	7.6	8.5	2
Cc1cc(NC(=O)CSCC(=O)OCC(=O)Nc2cc(C)c(C)cc2[N+](=O)[O-])no1	-3	-3	-8.7	-3%	-0.2	-6.1	-15
O=C(O)CCCNC(=O)/C(=C\c1ccc(Cl)cc1)NC(=O)c1ccccc1Br	0	10	0.1	6%	6.7	0.2	5
O=C(N/N=C/c1ccc2cccnc2c1)c1nc2ccccc2c(=O)[nH]1	-1	-1	2.0	·	?	-0.8	-19
O=C(O)c1cccnc1C(=O)c1ccccc1	4	-7	-3.8	·	7.2	2.8	-4
COc1ccc2[nH]c(CN3CCN(CC(C)C)C(CCO)C3)c(C)c2c1 (stereo not given)	-21	4	0.1	-5%	3.7	-2.6	10
CN(CCCNC(=O)c1cccc(N2CCCC2=O)c1)c1ccccc1	1	98*	-0.8	13%	-0.3	7.6	0
COc1ccccc1C=NN=C(N)C(N)=NN=Cc1ccccc1OC	·	·	2.6	-5%	·	·	6
Cc1cccc(CSc2nnc3c(n2)[nH]c2ccccc23)c1	9	·	1.6	9%	0.7	-2.4	7
O=C1NC(=O)/C(=C/c2cccc([N+](=O)[O-])c2)N1	18	0	4.2	18%	0.5	-2.9	-1
COC(=O)C(Oc1ccc2c(-c3ccc(OC)cc3)cc(=O)oc2c1)c1ccccc1 (stereo not given)	-4	-9	-1.0	·	0.6	1.7	-9
COc1cc(CN2CCC(C(=O)N3CCN(c4ccccc4F)CC3)CC2)cc(OC)c1O	3	-23	2.7	23%&2%	3.5	-4.4	2
CC(=O)C1=C(C)Nc2ncnn2C1c1cccc(OCc2ccccc2)c1 (stereo not given)	2	14	3.0	-7%	0.6	-1.9	-6

From PubChem BioAssay

Not a hit list (roughly 6.3% active in at least one column).
